ClpP mod = qHTS Assay for Activators of ClpP; purified B. subtilis ClpP, FRET peptide cleavage, 20 min; Potency, µM (series often up to 57.5 µM), for inactives: at the highest dose activity change, negative = active; hit rate 1.9% among 340,000; active = well fitted falling curve with a large enough effect; inconclusive = small, poorly fitted or top-dose-only effect; inactive = no such curve, though single readings can be large or run the other way; further: potency means the concentration at half of the fitted maximal effect; the source files actives as falling curves though it sought activators and does not explain the sign; nearly all actives have a fitted effect of over 65% in size; many hits overshoot -100%
Target sequence (P80244 whole entry, looked up): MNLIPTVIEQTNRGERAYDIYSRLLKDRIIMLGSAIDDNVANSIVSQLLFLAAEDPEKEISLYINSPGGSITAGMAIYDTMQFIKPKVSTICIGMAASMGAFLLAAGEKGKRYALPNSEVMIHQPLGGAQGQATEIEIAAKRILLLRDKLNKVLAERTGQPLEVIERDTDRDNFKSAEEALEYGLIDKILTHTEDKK
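ClpP 10 microg/mL final, pH 8 Tris/KCl buffer with BSA, glycerol, Tween-20; compound pinned in; FRET-FV substrate; RT 20 min; Ex320/Em430; ΔFRET vs ADEP 5.8 microM, DMSO, no enzyme.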
TRPML1 blocker = human mucolipin-1 channel inhibition. Q9GZU1. TRPML1-inducible cells, Ca2+ dye fluorescence, FDSS; stronger effect = lower value; inhibition of EC80 agonist-evoked calcium signal. activity change, negative = inhibition, % (test concentration not listed). hit rate 0.02% among 390,000; in the data active means activity change below about -50%; inconclusive means about -30% to -50%; inactive means above about -30%;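 further: stimulus is agonist 54-4 at its EC80 concentration; on the % scale 0 is the no-effect control and ±100 the full control effect; compound concentration not given in the record; the text of the record puts the active cut at -80%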
Target sequence (Q9GZU1 whole entry, looked up): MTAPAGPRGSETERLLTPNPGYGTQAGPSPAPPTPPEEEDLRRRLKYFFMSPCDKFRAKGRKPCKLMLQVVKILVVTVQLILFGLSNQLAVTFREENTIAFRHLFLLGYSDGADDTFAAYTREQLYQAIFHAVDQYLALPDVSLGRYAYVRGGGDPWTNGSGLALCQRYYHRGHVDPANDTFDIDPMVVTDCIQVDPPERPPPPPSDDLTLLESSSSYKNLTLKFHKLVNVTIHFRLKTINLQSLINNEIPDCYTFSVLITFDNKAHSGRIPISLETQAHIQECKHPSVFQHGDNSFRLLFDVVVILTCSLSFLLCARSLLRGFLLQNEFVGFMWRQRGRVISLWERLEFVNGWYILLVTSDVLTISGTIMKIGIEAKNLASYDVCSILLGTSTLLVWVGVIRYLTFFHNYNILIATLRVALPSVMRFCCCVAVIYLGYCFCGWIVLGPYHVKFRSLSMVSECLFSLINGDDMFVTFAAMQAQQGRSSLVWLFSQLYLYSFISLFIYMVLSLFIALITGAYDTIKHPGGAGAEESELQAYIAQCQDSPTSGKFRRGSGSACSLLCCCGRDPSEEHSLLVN
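Tet-induced TRPML1-DL cells loaded with Ca8 no-wash calcium dye were read kinetically on FDSS. Compound addition was followed by EC80 agonist 54-4 (4 uM final); inhibition was read over 110 s.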
Menin MLL FP FL = inhibitors of human menin-MLL interaction, wild-type MLL peptide | Fluorescence polarization, fluorescein-MLL peptide displacement from menin | FP activity change, % at 61.4 µM | AID 1766 | 290,000 tested, under 10 active; inconclusive = falling polarisation curve, or a change in total fluorescence; inactive = total fluorescence flat and polarisation flat or rising; no compound was filed as active; the % refers to the polarisation; negative = inhibition;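 further: % of control where 0% means no effect; inhibitors lower the polarisation; unlabelled MLL peptide was the positive control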
gsp antagonist = antagonizes gsp, the McCune-Albright syndrome mutation. gsp-mutant cells, cAMP HTRF, 30 min; control for the full effect not named in the record. Potency, µM (titrated, usually from 76.9 µM), for inactives: top-dose activity change, negative = inhibition, usual class: inhibitors. hit rate 0.4% among 340,000. AID 624288; active = falling curve of any shape with a large fitted effect; inconclusive = falling curve, mostly with a smaller effect; inactive = flat or rising curve; cell line not stated here;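 further: intracellular cAMP measured with PDE inhibitor Ro 20-1724 present during compound exposure; potency means the concentration at half of the fitted maximal effect; on the % scale 0 is the no-effect control and ±100 the full control effect; nearly all actives have a fitted effect of over 65% in size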
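G418-selected cells were plated in DMEM/10% FBS for 16-24 h at 37C, then treated with compounds plus the PDE inhibitor […] (300 uM solution added) for 30 min at 37C. Intracellular cAMP was measured by HTRF after 30 min lysis at room temperature.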
gsp agonist = gsp mutant agonism. gsp mutant cells, cAMP HTRF, 30 min; control for the full effect not named in the record. Potency, µM (series often up to 76.9 µM), without a hit: at the top dose activation (cAMP increase), usual class: activators. hit rate 0.13% among 340,000; active = well fitted activation curve with a large enough effect; inconclusive = small, poorly fitted or top-dose-only effect, or another doubt; inactive = no such curve, though single readings can be large or run the other way; cell line not stated here;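 further: phosphodiesterase inhibitor Ro 20-1724 added with compounds to block cAMP breakdown; potency means the concentration at half of the fitted maximal effect; nearly all actives have a fitted effect of over 60% in size; about a fifth of the inactives were tested at one dose only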
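Cells in DMEM/10% FBS with G418 were pretreated with compounds in DMSO plus […] (300 uM stock) for 30 min at 37C. cAMP was measured by HTRF (cAMP-d2 plus anti-cAMP antibody-K) after 30 min at room temperature.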
TRPML1 ag = agonists of human TRPML1 channel | hit rate 0.12% among 410,000 | activation, % (no concentration beside the values) | TRPML1-expressing cells, Ca2+ dye fluorescence, FDSS; host cell line not named in the record; reference of the full effect not given here | Q9GZU1; in the data active = activation above about 50%; inconclusive = about 30% to 50%; inactive = below about 30%; further: 0% is about no effect; the text of the record puts the active cut at 80%
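TRPML1-DL cells, Tet-induced overnight (~16 h, 37 degrees C), loaded 45-90 min at room temperature with Ca8 no-wash calcium dye plus quencher. FDSS fluorescence: 10 s baseline, compound pin-transfer, 110 s agonist read, then EC80 54-4 (4uM final) and 110 s antagonist read.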
* hit, by the source's call; u = inconclusive; x = no result given; & = joins results of further samples; [ ] = dose if it differs, or a comment. Some of the compounds tested; count on the stated rates, not on these rows.

smiles	ClpP mod	TRPML1 blocker	Menin MLL FP FL	gsp antagonist	gsp agonist	TRPML1 ag
COc1cc(OC)c(OC)cc1CN1CCN(C(=O)COc2ccc3ccccc3c2)CC1	1.3%	-17	-6.2	-11%	13%[15.4 µM]	-1.6
FC(F)(F)c1cccc(CC2CN(Cc3ccccc3)Cc3ccccc3N2c2cc(Cl)cc(Cl)c2)c1 (configuration not stated)	0.5%	-4	x	x	-44%[inhibitor]	0.0
Cc1c(C(c2ccc(Br)cc2)c2c(O)c3ccccc3oc2=O)c(=O)n(-c2ccccc2)n1C (configuration not stated)	0.8%&-23%	14&2	-1.8	-4%	-20%	0.9&0.9
Fc1ccc(Cn2nnnc2C(c2ccc(F)cc2)N2CC=C(c3ccc(F)cc3)CC2)cc1 (configuration not stated)	x	4	3.0	7%	2%[15.4 µM]	0.3
CC(C)C12CN3CCN(CC(C3)/C1=N\O)C2	-0.3%	-9	0.7	12%	u	0.0
Cc1cc(C(=O)OCC(=O)Nc2ccc(F)cc2F)c(C)n1C1CC1	-0.2%	4	x	-10%	26%	-0.2
C=CCn1c(O)c(C(CC)=NCCc2ccccc2)c(=O)[nH]c1=O	0.3%	-3	2.5	11%	4%	0.0
CC(C)N1CCN(Cc2cc3c(cc2Cl)OCO3)CC1CCO (configuration not stated)	x	-8	3.0	10%	8%[15.4 µM]	-1.2
O=C(Nc1nccs1)c1c(O)c2c(n(Cc3ccco3)c1=O)CCCC2	-3.8%	-8	11	-23%	7%	-0.3
CCN(CC)C1=NC(=[N+](CC)CC)c2ccccc21	-27%	-2	4.7	-16%	2%	0.9
CCOC(=O)C1=C(C)c2ccccc2OC1(C(=O)OCC)c1ccccc1 (configuration not stated)	-2.9%	23	5.6	-8%	x	1.1
COc1ccccc1N1CCN(C(=O)CCC(=O)Nc2nnc(CC(C)C)s2)CC1	-0.2%	43	-1.0	-6%	21%	-0.6
CCN1CCN(Cc2cc(Br)ccc2O)CC1	-1.3%	5	0.3	15%	17%	0.5
CC(=O)Nc1ccc(C(c2c(O)c3ccccc3oc2=O)c2c(C)n(C)n(-c3ccccc3)c2=O)cc1 (configuration not stated)	-7.8%	x	-4.2	-11%	8%	x
COC(=O)C1=C(c2ccc(OC)c(OC)c2)C[C@@H]2CC[C@H]1N2C(=O)NCc1ccco1	-1.2%	0	x	-2%	x	-0.4
CC(=O)C1C2c3ccccc3OC1(C)N=c1s/c(=C/c3cnn(C)c3)c(=O)n12 (configuration not stated)	1.3%	62	4.2	-7%	-32%[inhibitor]	-1.3
CCCN(CCC)[C@@H]1CCc2cccc(O)c2C1	0.9%	14	-2.8&-5.5&1.0&-13	-1%	x	0.6
CC(C)OC(=O)c1c(N)n(Cc2ccco2)c2nc3ccccc3nc12	14µM*	26	-0.8	-9%	37%	3.5
CC12CCC3C(CCC4CC(=O)CCC43C)C1CC(=NO)C2=O (configuration not stated)	-9.2%	18	x	6%	5%	0.4
CC(C)(C)P(=O)(N1CCOCC1)N1CCOCC1	x	-6	-0.8	8%	12%	0.1
CCc1ccc(NC(=O)C(C)OC(=O)c2c(C)nn(Cc3ccccc3)c2Cl)cc1 (configuration not stated)	x	15	-4.0	-28%	13%[15.4 µM]	1.4
Cc1nn(Cc2ccccc2)c(C)c1C(=O)OCC(=O)Nc1cc(S(C)(=O)=O)ccc1Cl	x	-23	0.1	x	1%[15.4 µM]	-0.4
C=CCn1c(O)c(C=Nc2ccc(F)cc2)c(=O)[nH]c1=O	x	-2	6.0	-1%	-42%[inhibitor]	-0.5
COC(=O)C1=C(c2ccc(OCc3ccccc3)cc2)C[C@@H]2CC[C@H]1N2C(=O)NCc1ccc(C(C)(C)C)cc1	-7.6%	16	x	x	-7%	1.2
Cc1cc(OCC(=O)N[C@@H](Cc2ccccc2)C(=O)O)c2c3c(c(=O)oc2c1)CCC3	4.8%	x	2.7	-3%	x	x
Cn1c(O)c(C=NC2CCN(Cc3ccccc3)CC2)c(=O)n(C)c1=O	x	-23	-1.4	-16%	6%[15.4 µM]	0.0
COc1ccccc1CN1CCCC(C(=O)c2ccccc2OC)C1 (configuration not stated)	x	-7	-4.5	-11%	u	-0.8
COc1cccc(NC(=O)C2CCN(c3nnc(C)c4c(C)n(-c5ccccc5)nc34)CC2)c1	u	-3	x	x	x	0.1
CCOc1ccc(-n2c(O)c(C=Nc3ccc(NC(C)=O)cc3)c(=O)[nH]c2=O)cc1	-12%	20	6.3	6%	16%	2.4
CCCC(=O)NC(Oc1ccc(Cl)cc1Cl)C(Cl)(Cl)Cl (configuration not stated)	-1.6%	6	-5.0	7%	-27%	0.6

Overlap with the part before: 2 entries, followed by the next part.
smiles	ClpP mod	TRPML1 blocker	Menin MLL FP FL	gsp antagonist	gsp agonist	TRPML1 ag
CCOc1ccc(-n2c(O)c(C=Nc3ccc(NC(C)=O)cc3)c(=O)[nH]c2=O)cc1	-12%	20	6.3	6%	16%	2.4
CCCC(=O)NC(Oc1ccc(Cl)cc1Cl)C(Cl)(Cl)Cl (configuration not stated)	-1.6%	6	-5.0	7%	-27%	0.6
CSc1ncc(Cl)c(C(=O)O)n1	-0.4%	2	0.6	5%	-28%	-0.8
O=CC(Cl)P(=O)(N1CCOCC1)N1CCOCC1 (configuration not stated)	-2.1%	28	-0.1	3%	9%	-0.2
C[C@]12CCCCC1=CC(=O)C1C2CC[C@@]2(C)C1C[C@@H](F)[C@@H]2O (some centres not stated)	x	11	x	-9%	20%	-1.3
Clc1ccc(C[n+]2c(-c3ccccc3)cc(-c3ccccc3)cc2-c2ccccc2)cc1	4.4%	6	x	-4%	x	-0.7
COc1ccccc1N=Nc1c(O)[nH]c(=S)[nH]c1=O	x	-12	u	u	19%[15.4 µM]	-0.5
CC(=O)OC1N=C(c2ccccc2)c2cc(Br)ccc2NC1=O (configuration not stated)	0.3%	25	2.8	-22%	-12%	1.2
Nc1ccccc1-[n+]1c(-c2ccccc2)cc(-c2ccccc2)cc1-c1ccccc1	x	-4	-1.1	2%	-4%[15.4 µM]	1.0
COc1ccccc1N1CCN(Cc2cnc(-c3ccccc3)[nH]2)CC1	x	-2	6.0	17%	13%[15.4 µM]	-0.5
COC(=O)c1c(N)n(Cc2ccc(OC)cc2)c2nc3ccccc3nc12	10µM*	50	3.5	3%	-1%	5.6
CC(C)Oc1cccc(C(=O)C2CCCN(C3CCOCC3)C2)c1 (configuration not stated)	x	15	5.4	13%	-5%	0.0
CCOC(=O)c1ccc(N2CCN(c3ccccc3F)CC2)c(NC(=O)Nc2ccc(Cl)c(Cl)c2)c1	u	16	x	x	x	-0.2
CCC(=NCCc1ccccc1)c1c(O)[nH]c(=O)[nH]c1=O	0.2%	0	3.0	12%	-9%[15.4 µM]	-0.5
COc1ccccc1NP1(=O)OCC(C)([N+](=O)[O-])CO1 (configuration not stated)	-3.5%	-9	x	7%	u	0.3
CCC1CN1P1(=O)OCC(C)([N+](=O)[O-])CO1 (configuration not stated)	-3.2%	-7	x	5%	11%	0.7
Oc1ccccc1C1NCc2ccccc2-n2cccc21 (configuration not stated)	x	-3	6.6	6%	u	0.2
CC1(C)C2([N+](=O)[O-])CNCC1([N+](=O)[O-])CNC2	-1.6%	7	1.4	-6%	-5%	0.3
C/C(O)=C(\C#N)C(=O)Nc1cc(Br)ccc1Br	-1.1%&1.9%	-3	3.4&-0.6	-18%	x	-0.2&-0.7
COC(=O)C1=C(c2ccccc2)C[C@@H]2CC[C@H]1N2C(=O)NCc1cccc2ccccc12	-1.8%	0	x	-16%	-1%	-0.1
C[C@]12CCC3C(CC[C@H]4C[C@H](O)CC[C@]34C)C1CC(=O)[C@@H]2O (some centres not stated)	-1.1%	-9	x	-4%	-7%[15.4 µM]	-0.1
CC(C)[C@H]1CC2C3CC=C4C[C@@H](O)CC[C@]4(C)C3CC[C@]2(C)[C@H]1O (some centres not stated)	x	2	x	3%	0%	-0.5
CC(=O)OC1C(O)C(C)OC(OC2C(OC(=O)C3CCC4C(C3)OC3(CC(OC(=O)/C=C/c5ccccc5)C(C)CO3)C43CO3)OC(C)C(O)C2OC(C)=O)C1O (configuration not stated)	0.5%	-6	x	10%	2%	0.0
CC1CC2C(C(O)CC3(C)C(O)CCC23)C2(C)CCC(=O)C=C12 (configuration not stated)	x	2	x	4%	30%	-0.4
COc1ccccc1-n1c(-c2ccccc2)nc2ccccc2c1=O	4.2%	5	-11	-21%	-1%[15.4 µM]	-0.1
COc1ccc(CNC(N)=O)cc1	-1.0%	21	x	8%	u	0.7
Clc1ccc(CSC(Cn2ccnc2)c2ccc(Cl)cc2Cl)cc1 (configuration not stated)	0.7%	88	-0.8&-1.1	-17%	x	3.4
Cc1ccc(C(=O)N/C(=C\Cl)P(=O)(c2ccccc2)c2ccccc2)cc1	x	10	0.9	10%	-2%[15.4 µM]	0.3
C[C@]1(O)CCC2C3CC[C@H]4C[C@@H](OC(=O)CNC(=O)CN)CC[C@]4(C)C3CC[C@@]21C (some centres not stated)	x	21	x	9%	-1%	0.5
COc1ccc(CCn2c(O)c(C=NCc3ccc4c(c3)OCO4)c(=O)[nH]c2=O)cc1OC	1.1%	11	4.0	-36%	2%	1.3
CCCCn1c(O)c(/C=N/N2CCOCC2)c(=O)[nH]c1=S	1.5%	-3	-1.7	3%	3%	-1.2
CCOc1cc(CNCCc2cccc(F)c2)ccc1OC	x	6	-2.5	9%	13%	0.5
CC(C)c1ccc(-n2c(O)c(/C=N/N3CCOCC3)c(=O)[nH]c2=S)cc1	x	6	5.1	-15%	-4%[15.4 µM]	0.3
CN(Cc1c[nH]c2ccccc12)C1CCCCC1	x	-3	2.8	3%	-12%[15.4 µM]	-0.7

Compound profiles, from the list above.
Clc1ccc(CSC(Cn2ccnc2)c2ccc(Cl)cc2Cl)cc1 (configuration not stated) is entered as ClpP mod: 0.7%; TRPML1 blocker: 88; Menin MLL FP FL: -0.8&-1.1; gsp antagonist: -17%; gsp agonist: x; TRPML1 ag: 3.4
C[C@]1(O)CCC2C3CC[C@H]4C[C@@H](OC(=O)CNC(=O)CN)CC[C@]4(C)C3CC[C@@]21C (some centres not stated) is entered as ClpP mod: x; TRPML1 blocker: 21; Menin MLL FP FL: x; gsp antagonist: 9%; gsp agonist: -1%; TRPML1 ag: 0.5

High-throughput results: PubChem, National Center for Advancing Translational Sciences (NCATS)
